Ecoli rRNA inh: reduced GFP signal of wild-type E. coli, primary screen, bacterial rRNA inhibitor project, GFP/RFP fluorescence, OD600, single point; AID 720706, 2013; GFP signal change (wild-type ribosome), % (test concentration not listed); E. coli WT GFP vs humanized-ribosome RFP mutants, 24 h; stronger effect = lower value; DMSO median 0, no signal -100; actives 1.6% (n = 350,000);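 active means significant combined selectivity score with lowered wild-type GFP, culture density cut under 30%, mutant RFP and density less affected; inactive means any of these conditions unmet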; further: one replicate is shown; some compounds called inactive have numbers as strong as hits
ALR inh: inhibitors of human ALR sulfhydryl oxidase, primary screen, biochemical, H2O2 detection, HRP-luminol luminescence, single point. FAD-linked sulfhydryl oxidase ALR (Homo sapiens), P55789. purified ALR, DTT oxidation. actives 3.8% (n = 290,000). inhibition, % (concentration not given with the values);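 active means mean and each replicate at 75% or more; inconclusive means only one of the two met; inactive means neither met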;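 further: stock transfer was 7.5 nL into about 7.5 µL; 0% = neutral wells and 100% = wells with inactivated enzyme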
Target sequence (P55789 whole entry, looked up): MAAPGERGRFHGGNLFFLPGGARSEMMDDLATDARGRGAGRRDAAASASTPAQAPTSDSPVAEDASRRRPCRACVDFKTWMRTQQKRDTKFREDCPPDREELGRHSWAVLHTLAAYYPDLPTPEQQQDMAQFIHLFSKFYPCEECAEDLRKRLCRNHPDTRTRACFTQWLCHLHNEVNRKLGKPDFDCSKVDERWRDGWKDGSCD
Beta cell apopt: inhibitors of cytokine-induced beta cell apoptosis, primary screen, luminescence | INS-1E cytokine-induced death, ATP luminescence, 48 h; percent of positive-control rescue, neutral wells zero | AID 435005, 2010 | actives 0.8% (n = 300,000) | protection from apoptosis, % (test concentration not listed);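 active means all replicates at 75% or more, or half of them and the mean; inconclusive means half reach 75% but not the mean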;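 further: 0% = cytokine-treated negative control wells and 100% = positive control rescue; higher means more ATP so stronger rescue from cytokine killing; wells of about 40 µL received 100 nL stock; the first replicate is given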
A1 inh: caspase 3/7 activation in MEF A1-2A-BIM cells, primary screen, A1 inhibitor project, cell-based, luminescence, HTS; actives 0.066% (n = 330,000); AID 2462, 2010; caspase activation, % (test concentration not listed); Caspase-Glo 3/7 luminescence, 3 h; percent of clofoctol response, vehicle zero;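 active means over half of replicate activation scores above 10%, or exactly half above 10 with the replicate mean above 10; inconclusive means replicate mean below 10 yet half the replicates above 10; inactive means over half of replicates below 10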;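 further: wells of about 30 µL received 50 nL stock; many hits fall short of the cut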
Calb FLC: C. albicans growth inhibition with fluconazole, primary screen, CaCi-2 strain, Alamar Blue fluorescence. AID 1979, 2009. growth inhibition, % (test concentration not listed). actives 0.57% (n = 300,000). C. albicans CaCi-2 (fluconazole-resistant clinical isolate) + fluconazole, 48 h;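 active means most replicates above 75%; inconclusive means exactly half above 75%; inactive means most below 75%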;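 further: all wells also contain fluconazole at 8 µg/ml as a sub-toxic cotreatment; 0% = median of DMSO wells and 100% = median of geldanamycin control wells; wells of about 8 µL received 7.5 nL stock; the first replicate is given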
Beta2AR agonist: beta2AR agonists driving receptor internalization, primary screen, cell-based, FAP fluorogen, flow cytometry. Am2.2-beta2AR cells; reference of the scale not given here. actives 0.43% (n = 340,000). Beta-2 adrenergic receptor (Homo sapiens), P07550. response, % (test concentration not listed);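 active means response above a set limit, near 3 SD of response in nonfluorescent compounds, cut at about 42% in these data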;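 further: stock transfer was 100 nL into about 11 µL; a reference agonist was the positive control; negative values mostly stem from fluorescent compounds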
Target sequence (P07550 whole entry, looked up): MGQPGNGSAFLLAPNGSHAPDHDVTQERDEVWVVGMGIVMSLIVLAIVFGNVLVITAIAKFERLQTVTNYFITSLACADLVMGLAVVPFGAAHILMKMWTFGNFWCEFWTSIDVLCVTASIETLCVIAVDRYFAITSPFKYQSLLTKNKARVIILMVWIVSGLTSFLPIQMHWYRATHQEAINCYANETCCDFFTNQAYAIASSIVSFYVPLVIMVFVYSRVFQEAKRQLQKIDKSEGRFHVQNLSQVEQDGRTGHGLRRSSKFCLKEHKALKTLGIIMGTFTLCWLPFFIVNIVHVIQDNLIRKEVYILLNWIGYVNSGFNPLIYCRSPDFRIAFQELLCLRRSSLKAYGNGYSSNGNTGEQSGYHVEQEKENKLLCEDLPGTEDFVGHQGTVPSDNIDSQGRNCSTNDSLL
LANA-H2A inh: blockers of LANA interaction with H2A/H2B – biochemical, FP readout, HTS, primary screen; cell-free LANA-H2A/H2B peptide, fluorescence polarization; inhibition, % (no concentration beside the values); actives 0.6% (n = 320,000); in the data active means inhibition mostly above about 10%, no sharp cut-off; inactive means mostly below about 6.7%;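 further: stock transfer was 7.5 nL into about 10 µL; 0% = median of vehicle wells and 100% = median of positive control wells; one replicate is shown; the record names a cut of 25% in any replicate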
T cruzi inh: inhibitors of intracellular T. cruzi growth, primary screen, luminescence, NIH3T3 host cells. T. cruzi beta-gal in NIH3T3, 90 h. inhibition, % (no concentration beside the values). actives 1.4% (n = 300,000). AID 1885, 2009;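 active means mean inhibition across valid replicates above about 55%, limit read from the data; inconclusive means mean below that limit but half or more replicates reach it; inactive means mean below it, under half of replicates reach it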;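 further: signal also drops with host cell toxicity which is not excluded here; 0% = plate median of DMSO wells and 100% = zero luminescence signal; higher percent means less beta-gal luminescence so fewer parasites; stock transfer was 50 nL into about 50 µL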
Ecoli rRNA inh OD600: second read-out of Ecoli rRNA inh, no call of its own (marks repeat the call); OD600 change, %; measured here: OD600 growth;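 optical density of the mix in the first replicate; 0 = DMSO median and -100 = no signal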
Ecoli rRNA inh RFP: further read-out of Ecoli rRNA inh, marked with its call; RFP signal change, %; measured here: RFP humanized mutant strains;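 first replicate; 0 = DMSO median and -100 = no signal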
The depositor's hits bear a star; i = inactive; ? = inconclusive; . = no result given.

The opening two records (preview)
#	Molecule	Ecoli rRNA inh	Ecoli rRNA inh OD600	Ecoli rRNA inh RFP	ALR inh	Beta cell apopt	A1 inh	Calb FLC	Beta2AR agonist	LANA-H2A inh	T cruzi inh
1	Cc1cccc(NC(=O)CSCC(=O)Nc2cc(Cl)ccc2N2CCN(C)CC2)c1	0	0	1.8	-2	-4	0.1	-7	13	2.9	59*
2	CCc1ccc(Nc2n[n+](-c3ccccc3)c(-c3ccc(N(CC)CC)cc3)s2)cc1	-51	-81	-22	-8	108*	-1.3	3	i	-11	58*

Main list, previewed entries included:
#	Molecule	Ecoli rRNA inh	Ecoli rRNA inh OD600	Ecoli rRNA inh RFP	ALR inh	Beta cell apopt	A1 inh	Calb FLC	Beta2AR agonist	LANA-H2A inh	T cruzi inh
1	Cc1cccc(NC(=O)CSCC(=O)Nc2cc(Cl)ccc2N2CCN(C)CC2)c1	0	0	1.8	-2	-4	0.1	-7	13	2.9	59*
2	CCc1ccc(Nc2n[n+](-c3ccccc3)c(-c3ccc(N(CC)CC)cc3)s2)cc1	-51	-81	-22	-8	108*	-1.3	3	i	-11	58*
3	O=c1c2ccccc2nc(-c2cccs2)n1-c1ccc2ccccc2c1	2	11	-4.2	-7	10	0.3	18	8	5.8	31
4	Cc1ccc(C(=O)COC(=O)C(C)N2C(=O)C3C4CCC(C4)C3C2=O)cc1C (stereo not drawn)	-10	-20	3.3	-2	-3	0.6	-7	-13	0.2	-12
5	CCOC(=O)c1ccccc1NC(=O)COC(=O)C1CC(=O)N(c2ccc3c(c2)OCCO3)C1 (stereo not drawn)	9	2	1.4	-10	-1	2.2	.	2	-2.6	-8
6	NC(=O)CSc1nnc(-c2ccccc2Br)n1-c1cccc(C(F)(F)F)c1	.	.	.	-1	-1	-0.4	-26	-7	4.2	5
7	N#Cc1nc(COc2ccc(Br)cc2)oc1N1CCCCCC1	-12	-11	-4.0	.	-5	-0.1	-4	-3	-3.4	33
8	Cc1c(C#N)c2ccccc2n1CC(=O)NCCc1c[nH]c2ccccc12	-39	-53	-8.9	-15	.	-0.2	-4	1	1.4	-4
9	Cc1cc(C)n(C(=O)c2ccc(C)c(Br)c2)n1	-6	1	-1.9	-1	0	-0.8	2	-3	-2.5	-18
10	COc1cccc(C2N(c3ccc(Cl)c(Cl)c3)C(=O)C3CCCN32)c1OC (stereo not drawn)	.	.	.	.	-3	1.4	-2	-11	10	11

Random excerpt: 3 records from the list
#	Molecule	Ecoli rRNA inh	Ecoli rRNA inh OD600	Ecoli rRNA inh RFP	ALR inh	Beta cell apopt	A1 inh	Calb FLC	Beta2AR agonist	LANA-H2A inh	T cruzi inh
8	Cc1c(C#N)c2ccccc2n1CC(=O)NCCc1c[nH]c2ccccc12	-39	-53	-8.9	-15	.	-0.2	-4	1	1.4	-4
6	NC(=O)CSc1nnc(-c2ccccc2Br)n1-c1cccc(C(F)(F)F)c1	.	.	.	-1	-1	-0.4	-26	-7	4.2	5
10	COc1cccc(C2N(c3ccc(Cl)c(Cl)c3)C(=O)C3CCCN32)c1OC (stereo not drawn)	.	.	.	.	-3	1.4	-2	-11	10	11

The listing continues.
#	Molecule	Ecoli rRNA inh	Ecoli rRNA inh OD600	Ecoli rRNA inh RFP	ALR inh	Beta cell apopt	A1 inh	Calb FLC	Beta2AR agonist	LANA-H2A inh	T cruzi inh
11	CC(C)OP(=O)(c1ccc(N(C)C)cc1)C(Nc1ccccc1)c1ccccc1 (stereo not drawn)	-27*	-8.1*	11*	54	4	0.4	5	7	0.0	-2
12	O=C(NNC1CC(=O)N(c2ccc3c(c2)OCCO3)C1=O)c1ccccc1 (stereo not drawn)	.	.	.	39	-8	1.2	-1	-2	5.7	-5
13	COc1ccc(C(=O)COc2ccc3ccc(=O)oc3c2)c(OC)c1	2	1	3.5	-2	1	-0.5	-7	51*	0.3	3
14	CCS(=O)(=O)n1nc(-c2ccc(OC)cc2)nc1N	12	10	-1.7	-18	-3	-0.4	-14	3	-8.6	-14
15	CN(CCOc1ccccc1)C(=O)c1cc(-c2ccco2)nc2ccccc12	0	1	0.9	4	2	-0.5	.	4	-2.0	.
16	CC(C)N(C(=O)CSc1nnc(-c2ccc3c(c2)OCO3)n1C)C(C)C	13	10	0.3	-3	0	0.5	-38	4	-2.3	5
17	CCOc1cc(/C=C2\SC(=Nc3ccc(F)cc3)N(c3ccc(F)cc3)C2=O)ccc1OCC(=O)O	.	.	.	2	-4	-1.2	?	.	3.2	-1
18	CCOc1ccc(/C=N/Nc2ccc(Cl)nn2)c(O)c1	7	10	-2.6	-6	119*	-0.2	5	-2	0.3	-2
19	Cc1[nH]n(-c2ccc([N+](=O)[O-])cc2)c(=O)c1C=NCCN1CCN(C(=O)c2ccc(F)cc2)CC1	.	.	.	6	.	-6.2	-21	4	2.2	6
20	Cc1ccc(-c2noc(-c3ccoc3C)n2)cc1	9	11	-0.4	3	-8	-4.9	-3	1	6.0	0
21	Clc1ccc(Cn2ncc3c(NCc4ccccc4)ncnc32)cc1	.	.	.	-3	0	-1.2	-6	14	0.7	-34
22	N#Cc1ccccc1NS(=O)(=O)c1cc2c3c(c1)CCN3C(=O)CC2	-3	-3	-3.6	-10	-2	0.3	2	-1	-1.2	9
23	O=C(Nc1ccccc1F)c1ccn[nH]1	12	24	-2.8	-5	-1	-2.2	1	-4	4.9	-8
24	O=C(C1CC(c2ccccc2O)=NO1)N1CCCCC1 (stereo not drawn)	2	3	-7.2	13	-1	-0.6	-9	-4	-5.6	5
25	C=CCN(Cc1ccco1)S(=O)(=O)c1ccc(Cl)cc1	.	.	.	0	-4	-0.1	3	3	-2.3	-10
26	Cc1ccc(S(=O)(=O)CCN2CCC(n3cccc3)CC2)cc1	20	14	9.1	-5	1	1.7	4	-1	1.5	-6
27	CCCOc1ccc(N2C(=O)CC(S/C(N)=N/N=C(\C)c3cccs3)C2=O)cc1 (stereo not drawn)	.	.	.	0	1	-1.8	3	-4	-3.9	9
28	O=C(Nc1ccc(F)cc1F)N1CCCN(c2ccc(C(F)(F)F)cn2)CC1	-7	-15	-3.2	-5	4	-0.6	12	1	0.8	-6
29	O=[N+]([O-])c1ccc(-c2cnc(NO)nc2)cc1	.	.	.	99*	.	0.1	-1	-5	0.7	-1
30	CC(C)c1ccc(NC2CCCN(C(=O)c3cnc4ccccn4c3=O)C2)cc1 (stereo not drawn)	8	1	2.8	95*	0	0.9	9	1	0.7	-3
31	COc1ccc(CCC(=O)OCC(=O)NC(=O)c2ccc(Cl)cc2)cc1	9	6	4.2	-6	-1	-0.1	.	8	-6.1	.
32	Cc1ccc(NC(=S)NC2CCN(Cc3ccccc3)CC2)c(C)c1	12	0	0.8	50	4	-1.3	3	-1	-4.6	9
33	COC(=O)Nc1ccc(SCC(=O)c2cccc([N+](=O)[O-])c2)cc1	-6	-2	-5.4	99*	-5	2.3	-4	2	0.6	14
34	COc1ccc(OC)c(CN2CCN(C(=O)CCC(=O)c3cccs3)CC2)c1	1	0	-0.6	-1	-4	-0.3	-7	4	1.5	3
35	Cc1ccc(/C=C/C(=O)Nc2ccc(O)c3c(=O)cc(-c4ccccc4Cl)oc23)cc1	13	6	-0.4	-3	5	-1.3	4	5	-2.0	-3
36	O=C(CSc1nccn1-c1ccc(F)cc1)NCc1ccc2c(c1)OCO2	.	.	.	-14	-6	0.3	-15	1	-0.4	14
37	Cc1cc(Nc2cccc(Cl)c2)nc(N2CCOCC2)n1	.	.	.	22	0	-0.4	35	-8	1.1	18
38	CCn1c(SCC(=O)N2CCCc3ccccc32)nc2ccccc2c1=O	.	.	.	-29	5	0.7	-1	4	0.2	11
39	COc1ccc(-c2noc(-c3ccoc3C)n2)cc1OC	22	16	4.6	-6	-2	-10	3	7	-3.7	-4
40	C=CCNC(=O)CSc1nc2sccc2c(=O)n1-c1ccccc1	-1	-7	-2.3	-1	2	-0.5	-5	-4	-0.5	-9
41	CCN(CC)C(=O)COc1coc(CN2CCN(Cc3ccccc3)CC2)cc1=O	3	10	-2.3	-3	.	-1.9	1	-5	1.9	11
42	COc1ccc(N2C(=O)C(OC(C)=O)C2c2ccc(C)cc2)cc1 (stereo not drawn)	.	.	.	-8	-5	-0.2	0	-2	2.1	-21
43	COc1ccc(C(=O)C2CCCN(C(=O)c3ccnn3C)C2)cc1OC (stereo not drawn)	3	4	-2.7	-4	-4	-0.5	-4	-13	3.1	5
44	CC(=O)Nc1cccc(-c2nc3ccc(NC(C)=O)cc3[nH]2)c1	.	.	.	56	5	-0.5	0	1	0.7	1
45	COc1ccc(NC(=O)CSc2nc3[nH]c(=O)cc(O)c3s2)cc1OC	7	11	-2.9	99*	-3	-0.3	.	-1	8.0	.
46	Cc1cc(C)n(-c2nc3ccccc3n3c(C)nnc23)n1	6	5	3.2	58	-3	0.8	-1	18	1.4	-5
47	COc1ccc(C2CC(=O)N3CN(c4ccccc4F)CSC3=C2C#N)cc1OC (stereo not drawn)	-1	-3	7.2	-37	-10	1.7	1	3	-1.1	2
48	CCOC(=O)c1nnn(-c2nonc2N)c1-c1ccc(OCC)cc1	.	.	.	-3	1	-1.0	-10	32	-5.6	19

The list is partial; rates above refer to the full screens.
